ALR H2O2 inh: inhibitors of human sulfhydryl oxidase ALR | P55789 | purified ALR, DTT oxidation, H2O2 HRP-luminol luminescence | inhibition, % (no concentration beside the values) | 290,000 compounds, 3.8% hits;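 active = mean and each replicate at 75% or more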;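 also: stock transfer was 7.5 nL into about 7.5 µL; 0% = neutral wells and 100% = wells with inactivated enzyme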
Ecoli growth: blocks Escherichia coli growth | OD600, 23 h; stronger effect = lower value | OD600 absorbance (concentration not given with the values) | 330,000 compounds, 0.21% hits | AID 1053175;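 active = OD600 absorbance below the run mean of sample wells minus 3.6 SD, in any replicate, cut at about 0.56 in these data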;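 also: stock transfer was 300 nL into about 60 µL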
MLL AF4-AF9 inh: inhibitors of human MLL-AF4/AF9 interaction; P42568; AlphaScreen, biotin-AF4 peptide binding to FLAG-AF9; inhibition, % at 10 µM; 350,000 compounds, 0.47% hits;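 active = every replicate reaching a set inhibition limit, whatever the replicate mean, cut at about 25% in these data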;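 also: 0% = plate neutral control median and 100% = total signal loss; the record names both 10 and 1 µM as test concentration; the first replicate is given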
Target sequence (P42568 whole entry, looked up): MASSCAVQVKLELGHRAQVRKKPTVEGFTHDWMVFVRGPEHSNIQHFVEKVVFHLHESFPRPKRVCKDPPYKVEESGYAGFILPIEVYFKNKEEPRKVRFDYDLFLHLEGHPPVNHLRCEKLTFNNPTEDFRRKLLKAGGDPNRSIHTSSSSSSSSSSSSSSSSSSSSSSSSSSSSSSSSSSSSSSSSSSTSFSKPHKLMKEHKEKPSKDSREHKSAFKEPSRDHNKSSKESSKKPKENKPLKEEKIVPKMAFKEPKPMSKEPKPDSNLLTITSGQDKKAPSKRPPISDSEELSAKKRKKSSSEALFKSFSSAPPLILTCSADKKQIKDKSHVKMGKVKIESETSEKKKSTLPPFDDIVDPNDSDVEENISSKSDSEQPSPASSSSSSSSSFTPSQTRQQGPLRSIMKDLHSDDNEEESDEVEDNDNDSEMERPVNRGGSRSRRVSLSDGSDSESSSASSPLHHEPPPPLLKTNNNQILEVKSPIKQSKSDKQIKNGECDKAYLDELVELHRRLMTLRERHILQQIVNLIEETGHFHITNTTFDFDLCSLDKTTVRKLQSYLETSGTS
HNF4A DNA FP: change in binding of human HNF4 alpha to DNA | P41235 | HNF4a-FITC DNA binding, fluorescence polarization, 1 h | AID 1224865 | 360,000 compounds, 0.3% hits | activity change, % at 10 µM; in the data active = activity change above about 30%, passing the limit was not always enough;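 also: controls were the assay level and a saturating level of protein; the project sought stronger binding though the title names inhibitors; some compounds called inactive have numbers as strong as hits; positive values seem to mean higher polarization but the record does not say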
Target sequence (P41235 whole entry, looked up): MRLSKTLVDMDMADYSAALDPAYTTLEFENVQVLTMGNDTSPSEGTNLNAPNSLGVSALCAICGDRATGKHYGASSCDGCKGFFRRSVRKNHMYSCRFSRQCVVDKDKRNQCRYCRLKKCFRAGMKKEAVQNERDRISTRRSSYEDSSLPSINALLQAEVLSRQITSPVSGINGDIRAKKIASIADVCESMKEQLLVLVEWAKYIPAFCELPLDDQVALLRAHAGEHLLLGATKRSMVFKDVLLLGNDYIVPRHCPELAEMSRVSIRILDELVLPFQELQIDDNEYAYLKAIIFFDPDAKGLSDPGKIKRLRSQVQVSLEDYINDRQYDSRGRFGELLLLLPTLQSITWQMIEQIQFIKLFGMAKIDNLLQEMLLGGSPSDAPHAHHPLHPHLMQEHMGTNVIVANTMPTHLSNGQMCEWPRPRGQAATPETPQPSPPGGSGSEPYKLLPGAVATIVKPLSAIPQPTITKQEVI
Vif TR-FRET: HIV-1 Vif–A3G interaction blockers – biochemical, TR-FRET, GST-Vif 1-94, biotin-A3G peptide, dose response retest, primary screen (AID 1117319); TR-FRET GST-Vif / biotin-A3G peptide binding; higher % means a stronger effect; test concentration not given here; strong numbers were not always called active; 260,000 compounds, 0.57% hits; inhibition, %; hits with a dose series show IC50 in µM;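 active = above the screen mean plus three standard deviations and confirmed in dose response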;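 also: Vif residues 1-94 fused to GST binding biotinylated APOBEC3G peptide 110-148; 0% = full assay without inhibitor and 100% = GST in place of GST-Vif; retest series ran down from 100 µM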
rRNA inh HTS: inhibitors of bacterial rRNA selective over humanized ribosomes; E. coli WT GFP vs humanized-ribosome RFP mutants, fluorescence, 24 h; stronger effect = lower value; DMSO median 0, no signal -100; GFP signal change (wild-type ribosome), % (concentration not given with the values); 350,000 compounds, 1.6% hits;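 active = significant combined selectivity score with lowered wild-type GFP, culture density cut under 30%, mutant RFP and density less affected; inactive = any of these conditions unmet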; also: one replicate is shown; some compounds called inactive have numbers as strong as hits
FGF22 binding: FGF22 (human) thermal shift binding | Q9HCT0 | recombinant FGF22 thermal shift, SYPRO orange fluorescence; percent of sucrose octasulfate shift, DMSO zero | calls only at 9.99 µM | 340,000 compounds, 1.5% hits | AID 651658;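 active = melting point raised past a set limit in the mean and every replicate; three in four hits are not shown here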
rRNA inh HTS OD600: also measured in rRNA inh HTS; calls as there; OD600 change, %; measured here: OD600 growth;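 optical density of the mix in the first replicate; 0 = DMSO median and -100 = no signal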
rRNA inh HTS RFP: second read-out of rRNA inh HTS, no call of its own (marks repeat the call); RFP signal change, %; measured here: RFP humanized mutant strains;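 first replicate; 0 = DMSO median and -100 = no signal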
* marks the source's active call; other numbers are inactive results; i = inactive; nt = not tested or not shown; + = active, no number. This is a subset; count on the stated rates, not on these rows.

SMILES	ALR H2O2 inh	Ecoli growth	MLL AF4-AF9 inh	HNF4A DNA FP	Vif TR-FRET	rRNA inh HTS	rRNA inh HTS OD600	rRNA inh HTS RFP	FGF22 binding
COc1ccccc1C(C)Nc1ccc(S(=O)(=O)N2CCN(C)CC2)cc1[N+](=O)[O-] (centres undefined)	-3	0.67	28*	-1.3	nt	-8	-2	7.9	i
CNC(=O)C[C@H]1C(=O)N(c2ccccc2)C[C@@H]1CSC	nt	nt	-3.4	-1.5	0%	13	9	-0.3	i
C[C@@H]1CN([C@@H](C)CO)C(=O)c2cc(C3=CCCCC3)cnc2O[C@@H]1CN(C)C(=O)Nc1ccc(F)cc1	nt	nt	1.4	nt	nt	-4	-4	21	i
CCOC(=O)c1c(/N=C/C2=C(O)CCCC2=O)sc(C)c1C	36	nt	nt	1.3	24%	nt	nt	nt	nt
COc1ccccc1NC(=S)N1CCn2cccc2C1c1cccnc1 (centres undefined)	16	0.65	6.5	2.4	-1%	14	9	8.2	i
COC(=O)COc1cccc(NS(=O)(=O)c2cccc([N+](=O)[O-])c2)c1	-8	0.72	-0.3	1.1	4%	12	4	-5.1	nt
CN(CC(=O)Nc1ccc(F)cc1)C(=O)CSc1nncs1	2	0.69	-1.5	3.0	nt	0	-5	0.3	i
COCC(=O)N1C[C@@H](C)[C@H](OC)CN(C)C(=O)c2cc(NC(=O)c3ccc(OC)cc3)ccc2OC[C@@H]1C	nt	nt	-1.9	nt	nt	0	1	-0.8	i
C[C@@H]1CN([C@H](C)CO)C(=O)Cc2cc(NC(=O)C3CCCCC3)ccc2O[C@H]1CN(C)S(=O)(=O)c1cccs1	nt	nt	2.0	nt	nt	-1	-4	2.5	i
CCc1cccc(NC(=O)CCSCCC(=O)Nc2cccc(CC)c2)c1	-22	0.67	nt	-11	-4%	nt	nt	nt	nt
O=C(O)/C=C\C(=O)NNC(=O)c1cc(-c2ccccc2)n[nH]1	-9	0.67	-11	-2.1	15%	3	6	-2.5	i
Cc1ccc(C)c(NC(=O)COC(=O)c2nn(C)c(=O)c3ccccc23)c1	-10	0.73	-2.4	-2.3	nt	3	3	-2.2	i
CN=C(Nc1cc(C)nn1-c1ccccc1)c1ccccc1	-2	0.68	-24	0.0	-3%	-1	1	-7.9	i
N#Cc1c(-c2ccccc2)cc(-c2ccccc2)[nH]c1=O	-4	0.71	-2.5	1.8	-9%	8	1	-1.2	i
O=C(C1=C(O)C(=O)N(Cc2ccco2)C1c1ccccc1)c1cccs1 (centres undefined)	43	0.69	nt	-6.3	9%	nt	nt	nt	nt
COc1cccc(/C=C/C(=O)OCC(=O)Nc2ccc(Cl)c(S(=O)(=O)N(C)C)c2)c1OC	0	0.68	2.2	-2.2	16%	-15	-17	-3.2	i
O=C(Nc1ccc(F)cc1)c1cn(-c2ccccc2)nc1-c1ccncc1	0	0.7	nt	7.2	-2%	nt	nt	nt	nt
COc1ccc(CNC(=O)Nc2nnc([C@@H]3C[C@H](O)[C@@H](CO)O3)s2)cc1	nt	nt	-5.0	1.5	nt	nt	nt	nt	i
CCOc1ccc(C(C(=O)NC2CCCC2)N(Cc2ccccc2)C(=O)c2nsc(Cl)c2Cl)cc1 (centres undefined)	1	0.67	7.4	-3.4	-2%	19	10	2.9	i
COc1ccc(OCC2CNC(=O)O2)cc1 (centres undefined)	-29	nt	13	-1.5	nt	8	3	0.2	i
Cc1ccc(S(=O)(=O)NCC[C@@H]2CC[C@H](NC(=O)c3cccc(F)c3)[C@H](CO)O2)cc1	nt	nt	0.6	nt	nt	-2	-7	-2.2	i
c1ccc(CSc2nnc(-c3c[nH]c4ccccc34)o2)cc1	nt	0.77	nt	-4.0	-4%	nt	nt	nt	nt
O=C(O)c1cc2c(N3CCC(Cc4ccccc4)CC3)ncnc2s1	-4	0.66	2.7	-0.5	-6%	-48	-67	-11	i
O=C1NC(=Nc2ccc(F)cc2)SC1Cc1ccc(F)cc1 (centres undefined)	2	0.69	-0.1	-3.1	69%	10	10	-3.4	i
O=C(C[C@H]1C=C[C@H](NC(=O)NC2CCCCC2)[C@H](CO)O1)NCc1ccc(Cl)cc1	nt	nt	-0.7	nt	nt	0	-1	-1.8	i

Shown field by field: three of the compounds above.
CN=C(Nc1cc(C)nn1-c1ccccc1)c1ccccc1
  ALR H2O2 inh: -2
  Ecoli growth: 0.68
  MLL AF4-AF9 inh: -24
  HNF4A DNA FP: 0.0
  Vif TR-FRET: -3%
  rRNA inh HTS: -1
  rRNA inh HTS OD600: 1
  rRNA inh HTS RFP: -7.9
  FGF22 binding: i

CCOc1ccc(C(C(=O)NC2CCCC2)N(Cc2ccccc2)C(=O)c2nsc(Cl)c2Cl)cc1 (centres undefined)
  ALR H2O2 inh: 1
  Ecoli growth: 0.67
  MLL AF4-AF9 inh: 7.4
  HNF4A DNA FP: -3.4
  Vif TR-FRET: -2%
  rRNA inh HTS: 19
  rRNA inh HTS OD600: 10
  rRNA inh HTS RFP: 2.9
  FGF22 binding: i

CNC(=O)C[C@H]1C(=O)N(c2ccccc2)C[C@@H]1CSC
  ALR H2O2 inh: nt
  Ecoli growth: nt
  MLL AF4-AF9 inh: -3.4
  HNF4A DNA FP: -1.5
  Vif TR-FRET: 0%
  rRNA inh HTS: 13
  rRNA inh HTS OD600: 9
  rRNA inh HTS RFP: -0.3
  FGF22 binding: i

(list continues)
SMILES	ALR H2O2 inh	Ecoli growth	MLL AF4-AF9 inh	HNF4A DNA FP	Vif TR-FRET	rRNA inh HTS	rRNA inh HTS OD600	rRNA inh HTS RFP	FGF22 binding
CC(CNC(=O)COc1ccc2c(c1)OCO2)c1ccccc1 (centres undefined)	-22	0.71	-8.7	2.6	9%	-15	-17	-2.0	i
C[C@H]1CN([C@@H](C)CO)C(=O)Cc2cc(NC(=O)Nc3ccc(C(F)(F)F)cc3)ccc2O[C@@H]1CN(C)C(=O)Nc1cccc2ccccc12	nt	nt	-22	nt	nt	-2	2	-0.6	i
O=C(NCCC1=CCCCC1)C1CCCN(S(=O)(=O)c2cnc[nH]2)C1 (centres undefined)	-139	0.74	-7.7	4.9	-2%	6	3	1.2	i
Cc1c2cnn(CC(=O)NC3CCCC3)c(=O)c2c(C)n1Cc1ccccc1	-1	0.69	-0.5	-2.0	nt	4	3	1.7	i
O=C(C[C@H]1CC[C@@H]2[C@H](COC[C@H](O)CN2C(=O)Nc2ccc(Cl)c(Cl)c2)O1)NCc1ccc(Cl)c(Cl)c1	nt	nt	0.2	nt	nt	-59	-75	-16	i
CS(=O)(=O)N1[C@@H]2Cn3c(ccc(C4=CCCCC4)c3=O)[C@H]1[C@@H](C(=O)N1CCOCC1)[C@@H]2CO	nt	nt	1.1	nt	nt	0	-3	-1.9	i
O=C(CSc1nc2ccccc2c(=O)n1Cc1ccccc1)Nc1ccc(Br)cc1C(=O)O	97*	0.69	0.4	-1.7	nt	-18	-25	0.8	i
O=C(NNc1ccc([N+](=O)[O-])cc1)C1C2CCCCC21 (centres undefined)	-7	0.67	nt	-0.4	11%	nt	nt	nt	nt
Cc1ccc(CNC(=O)c2ccc(S(=O)(=O)Nc3c(C)n(C)n(-c4ccccc4)c3=O)cc2)cc1	nt	0.64	-1.5	-3.5	nt	1	-2	-0.5	i
CCOC(=O)C1=C(C)NC(C)=C(C(=O)OCC)C1/C=C/c1ccccc1	0	0.68	-13	-0.6	6%	-38	-50	6.8	i
C[C@@H]1CN([C@@H](C)CO)C(=O)c2cc(NS(=O)(=O)c3ccc(Cl)cc3)ccc2O[C@H]1CN(C)Cc1ccc(-c2ccccc2)cc1	nt	nt	-0.8	nt	nt	0	-1	2.7	i
O=C1Cc2ccccc2C(=O)N1c1cccc(Cl)c1	-4	0.67	0.8	-3.6	nt	6	19	-0.2	+
Cc1ccc(CC(=O)N2CCC(c3nc4c(nnn4Cc4ccccc4)c(=O)[nH]3)CC2)cc1	-10	0.72	1.6	-3.1	6%	-4	-14	11	i
COc1cccc(NC(=O)Cn2c3ccc(F)cc3c3nc4n(c(=O)c32)CCCS4)c1	-2	0.67	0.1	2.9	31%	-7	-8	-2.5	i
Cc1sc2nc(SCC(=O)NCCOCCO)nc(N)c2c1C	-11	0.7	-1.4	2.6	13%	2	1	-1.1	i
C[C@@H]1CN([C@H](C)CO)C(=O)c2cc(NS(=O)(=O)c3ccc(F)cc3)ccc2O[C@@H](C)CCCCO[C@@H]1CN(C)CC1CCCCC1	nt	nt	5.0	nt	nt	4	-16	18	i
O=C(c1ccccc1[N+](=O)[O-])N1CCCN(C(=O)c2ccccc2[N+](=O)[O-])CC1	-12	0.64	nt	-0.8	15%	nt	nt	nt	nt
CCOc1ccc(Cl)cc1-c1cc(C(=O)Nc2ccc(C(C)C)cc2)[nH]n1	nt	nt	-3.0	-2.9	nt	1	7	0.9	i
O=C(C(c1ccccc1)c1ccccc1)N1CCCc2ccccc21	nt	0.7	nt	2.8	-9%	nt	nt	nt	nt
CCOC(=O)CC(=O)CSc1nc(N)c(C#N)c(-c2ccc(F)cc2)c1C#N	2	0.73	nt	-2.3	5%	nt	nt	nt	nt
Cc1cccc2sc(N(CCN(C)C)C(=O)c3cc(Cl)sc3Cl)nc12	0	0.67	nt	2.8	nt	nt	nt	nt	nt
COc1ccc(S(=O)(=O)Nc2ccc3c(c2)C(=O)N([C@H](C)CO)C[C@H](C)[C@@H](CN(C)Cc2ccc4c(c2)OCO4)OCCCC[C@@H](C)O3)cc1	nt	nt	-1.6	nt	nt	0	2	1.0	i
CC1(C)CC(NNCCC#N)=CC(=[N+]2CCCC2)C1	7	0.68	-0.5	4.5	nt	14	5	1.7	i
COc1cc(/C=N/n2cnnc2)ccc1OCc1ccccc1	0	nt	nt	0.3	15%	nt	nt	nt	nt
CCOC(=O)C1=C(COC(=O)C2CC(=O)N(c3ccccc3F)C2)NC(=O)NC1C (centres undefined)	-6	0.69	-6.1	4.3	4%	13	17	40	i
C=CCc1cc(S(=O)(=O)c2ccc(O)c(CC=C)c2)ccc1O	88*	0.66	4.9	-2.5	nt	-54	-79	-14	i
CCOC(=O)CN1CC23C=CC(O2)C(C(=O)NCc2ccccc2OC)C3C1=O (centres undefined)	-13	0.77	-2.2	-1.3	0%	7	11	-2.2	i

Three structures already listed, sorted by count of non-hydrogen atoms, highest first.
SMILES	ALR H2O2 inh	Ecoli growth	MLL AF4-AF9 inh	HNF4A DNA FP	Vif TR-FRET	rRNA inh HTS	rRNA inh HTS OD600	rRNA inh HTS RFP	FGF22 binding
CS(=O)(=O)N1[C@@H]2Cn3c(ccc(C4=CCCCC4)c3=O)[C@H]1[C@@H](C(=O)N1CCOCC1)[C@@H]2CO	nt	nt	1.1	nt	nt	0	-3	-1.9	i
COc1cc(/C=N/n2cnnc2)ccc1OCc1ccccc1	0	nt	nt	0.3	15%	nt	nt	nt	nt
O=C1Cc2ccccc2C(=O)N1c1cccc(Cl)c1	-4	0.67	0.8	-3.6	nt	6	19	-0.2	+

Screening results as filed in PubChem.
